Screens (PubChem)
CSC inhib = blocks cancer stem cells. hit rate 1.1% among 300,000. cancer stem cell-like cells viability, luminescence. inhibition, % at 7.5 µM;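 active = mean at 75% or more and at least half the replicates too; inconclusive = mean and replicates disagree; tested in HMLE shEcad cells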;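 note: 0% = median of negative and 100% = median of positive control wells; the first replicate is given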
MT1-MMP act inh = MT1-MMP (human) activation inhibition; hit rate 0.061% among 360,000; HT1080 RFP-PRO-GFP cells, GFP/RFP ratio fluorescence, overnight; percent of plate control window, DMSO zero; GFP/RFP ratio change, % at 20 µM; P50281;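 active = GFP/RFP ratio change of at least 30% with cell ATP level not reduced by more than half and red fluorescence within 50% of control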; note: strong numbers were not always called active
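Test system: HT1080 cells expressing an RFP-PRO-GFP fluorescent reporter construct / Compound dosing: single-point 20 µM compound, 1% DMSO / Schedule: cells overnight before dosing, compound overnight, 37 °C, 5% CO2 / Evaluation: GFP/RFP fluorescence ratio / Control set: DMSO and RFP-L50D-GFP cell wells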
UUG fidelity = alters start codon recognition fidelity in yeast | S. cerevisiae UUG-firefly luciferase reporter, luminescence/redox ratio | activity score, % at 18.7 µM | hit rate 0.13% among 350,000 | AID 602363;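 active = replicate mean at a twofold rise or more, about +100% in these data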;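 note: firefly luciferase made from a UUG start codon reports start codon fidelity; reporter light over untreated wells divided by growth signal over untreated wells; some hits fall short of that in this replicate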
eIF4H inh = inhibitors of RNA binding by human eIF4H | Q15056 | eIF4H fluorescence polarization binding assay | inhibition, % at 35 µM | hit rate 0.94% among 290,000;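 active = 50% or more with normal probe brightness, or confirmed in later tests; inconclusive = above 50% with abnormal brightness, or retests that disagree; inactive = below 50% or failed in later tests; about a fifth of its hits are not listed in these tables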;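 note: calls also rest on retests at 20 µM and on dose response follow-up; 0% = protein and probe with vehicle and 100% = probe without protein; strong numbers were not always called active; many hits fall short of the cut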
Rce1 inh = blocks yeast Ras-converting enzyme; hit rate 0.27% among 290,000; AID 2563; Q03530; calls only; yeast membranes, quenched prenylated peptide cleavage fluorescence;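 active = fall in fluorescence gain of 50% or more versus controls, with final raw signal at or below 3038400; inconclusive = same 50% fall but final raw signal above 3038400; inactive = fall in fluorescence gain under 50%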;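 note: plate controls were neutral control wells for no effect and wells lacking membranes for full effect; tested at 10 µM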
PABP FP inh = PABP-poly(A) binding inhibition | hit rate 1% among 290,000 | inhibition, % at 35 µM | PABP-poly(A) RNA binding, fluorescence polarization;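 active = 50% or more with normal probe brightness, or confirmed in later tests; inconclusive = above 50% with abnormal brightness, or retests that disagree; inactive = below 50% or failed in later tests; about a fifth of its hits are not listed in these tables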;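 note: calls also rest on retests at 20 µM and on dose response follow-up; controls were probe without protein and protein plus probe with vehicle; some compounds called inactive have numbers as strong as hits; many hits fall short of the cut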
Target sequence (P11940 whole entry, looked up): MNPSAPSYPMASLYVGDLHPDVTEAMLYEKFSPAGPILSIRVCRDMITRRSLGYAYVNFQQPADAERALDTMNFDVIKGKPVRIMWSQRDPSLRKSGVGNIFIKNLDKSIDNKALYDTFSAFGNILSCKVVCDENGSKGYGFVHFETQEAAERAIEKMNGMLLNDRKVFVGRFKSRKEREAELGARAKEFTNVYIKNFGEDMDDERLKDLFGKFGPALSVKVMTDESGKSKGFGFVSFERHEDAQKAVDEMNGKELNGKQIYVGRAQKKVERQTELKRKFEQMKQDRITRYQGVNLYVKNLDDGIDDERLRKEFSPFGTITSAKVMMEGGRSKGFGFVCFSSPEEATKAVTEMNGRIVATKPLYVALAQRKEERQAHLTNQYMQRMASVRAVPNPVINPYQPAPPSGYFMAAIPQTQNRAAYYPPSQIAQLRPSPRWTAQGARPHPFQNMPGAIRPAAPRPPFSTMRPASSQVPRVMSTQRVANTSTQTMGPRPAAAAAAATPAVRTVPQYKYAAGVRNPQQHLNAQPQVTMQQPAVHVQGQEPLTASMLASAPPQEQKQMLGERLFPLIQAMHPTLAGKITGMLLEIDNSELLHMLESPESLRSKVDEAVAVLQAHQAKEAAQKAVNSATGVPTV
Env fusion inh = inhibitors of HIV Env-mediated cell fusion | HeLa-JRFL Env/CEM21 cell fusion, luciferase | inhibition, % at 12.3 µM | hit rate 1.1% among 360,000 | AID 651610;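 active = mean replicate inhibition score of at least 50 and every replicate individually at or above 50; inconclusive = only one of the two criteria met; inactive = mean below 50 and not all replicates reaching 50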;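 note: 0% = plate neutral controls and 100% = maraviroc near 300 nM; one replicate is shown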
eIF4H inh retest = further read-out of eIF4H inh, marked with its call; inhibition, %; compound at 20 µM; confirmation average;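 mean of two retest wells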
PABP FP inh retest = recorded beside PABP FP inh, whose call it bears; inhibition, %; compound at 20 µM; confirmation repeats;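 mean of two retest wells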
MT1-MMP act inh RFP = further read-out of MT1-MMP act inh, marked with its call; RFP signal change, %; measured here: RFP expression control read;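 0 = vehicle wells; hits needed this value within 50% of zero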
The depositor's hits bear a star; i = inactive; ? = inconclusive; / = no result given; + = active, no number.

SMILES | CSC inhib | MT1-MMP act inh | MT1-MMP act inh RFP | UUG fidelity | eIF4H inh | Rce1 inh | PABP FP inh | Env fusion inh | others
CSc1ncccc1C(=O)OCn1nnc2ccccc2c1=O | 4 | 15 | 5 | -9 | -2 | i | 2 | -14
COc1ccc2c(-c3ccccc3)cc(SC(C)C(N)=O)nc2c1 (stereo not drawn) | 28 | 4 | 3 | -10 | 1 | i | 41 | 8
O=C1CC(c2ccccc2)CC(O)=C1C=NCCc1ccccc1 (stereo not drawn) | -6 | 2 | 3 | / | 3 | i | -7 | 17
CC(C)C[C@H]1CN([C@@H](CC(C)C)CN2CCCC2CN2C(=S)NC[C@@H]2Cc2ccc(O)cc2)C(=S)N1CC1CCCCC1 (stereo partly drawn) | / | -6 | -18 | -14 | / | / | / | -16
CCOC(=O)C1=CC[C@@H](c2ccc([N+](=O)[O-])cc2)N(S(=O)(=O)c2ccc(C)cc2)[C@H]1c1ccccc1 | / | -5 | -10 | -6 | / | / | / | 10
CC(C)[C@@H]1COC(c2cccc(C3=N[C@H](C(C)C)CO3)c2)=N1 | -4 | 3 | -9 | -3 | -1 | i | 1 | 3
CN(CCc1cnn(C)c1)Cc1nc(CC2CC2)no1 | -5 | 0 | 1 | -6 | -5 | i | -4 | -14
COc1ccc(/C(O)=C2/C(=O)C(=O)N(c3ccccn3)C2c2cccc(Cl)c2)cc1 (stereo not drawn) | 6 | -3 | -2 | -5 | 6 | i | 8 | -5
Cn1c(Cl)c(/C=N/OC(=O)c2ccccc2Cl)c2ccccc21 | 1 | 1 | 2 | -37 | 2 | i | 4 | /
Cc1cc(C)nc(N/N=C/c2c(CO)cnc(C)c2O)n1 | -3 | 4 | 6 | 1 | 28 | i | 21 | -2
Cc1ccc2c(COC(=O)CC3Sc4ccccc4NC3=O)cc(=O)oc2c1C (stereo not drawn) | 12 | 1 | 4 | -4 | 1 | i | 2 | -2
CCN1/C(=C/c2ccc3ccccc3[n+]2CCCS(=O)(=O)[O-])C=Cc2cc(C)ccc21 | 19 | 58 | 57 | -1 | -25 | i | 32 | 18
COc1ccc(CCNC(=O)CCCn2nc(C)n3ccnc3c2=O)cc1OC | -10 | -1 | 7 | -11 | -5 | i | -8 | 13
Cn1c(CNc2nc3ccccc3n2CCN2CCCCC2)nc2ccccc21 | -6 | 9 | 3 | -9 | -3 | / | -5 | -114
COc1ccc(CSc2ccc(-c3nc4ccccn4c3NCc3ccccc3)cc2OC)cc1 | 30 | -1 | -9 | -17 | / | + | / | 18
O=C(CN1CCCC1)Nc1nnc(-c2cccs2)s1 | -12 | 1 | -1 | / | 7 | i | 17 | -11
COc1cc(OC)c(C(=O)/C=C/c2ccc(OCc3ccccc3)c(OC)c2)c(OC)c1 | / | -4 | -15 | -11 | -12 | i | -10 | -14
COc1ccc(-c2c(C(=O)O)c(C(=O)O)c3n2CCC3)cc1 | -11 | 0 | 3 | -13 | -13 | i | -4 | 3
O=C(NCc1ccncc1)c1cnccn1 | -2 | -1 | -5 | 0 | 6 | i | -2 | -124
CCN1CCN(c2ncnc3scc(-c4ccc(C)cc4)c23)CC1 | -39 | -14 | -6 | -9 | 6 | i | -10 | 10
COc1cc2c(cc1OC)C(C)=NCC2 | -5 | 0 | 2 | 4 | -3 | i | 4 | /
CCOC(=O)C(Sc1n[nH]c(N)n1)c1ccccc1 (stereo not drawn) | -14 | 0 | -1 | -9 | 2 | i | 8 | /
CC(=O)NC1C(=O)Nc2c1cccc2C(F)(F)F (stereo not drawn) | -1 | 2 | 5 | -14 | 2 | i | -2 | /
O=C1CC2c3ccccc3C1C1C(=O)N(CCc3ccccc3)C(=O)C21 (stereo not drawn) | -10 | -2 | -8 | / | -3 | i | -8 | -3
CCCn1c(N)[n+](CC(=O)c2ccco2)c2ccccc21 | -2 | 3 | 1 | -6 | -5 | i | -9 | /
CCN1C(=O)[C@H]2[C@@H](c3ccc(-c4ccc(OC)cc4)cc3)N[C@@](CC(C)C)(C(=O)OC)[C@H]2C1=O | 5 | 8 | 2 | -2 | / | i | / | 42
COc1ccc(S(=O)(=O)N2CCN(C(=O)c3cc(C)oc3C)CC2)cc1 | -17 | -1 | -2 | / | 2 | i | 13 | 1
CC(=O)N(/N=C/c1ccc(C)cc1)c1nc(CCl)cs1 | 6 | -2 | 0 | -7 | -4 | i | -9 | -6
O=C(CN1C(=O)NC2(CCCc3ccccc32)C1=O)c1ccccc1F (stereo not drawn) | 5 | -1 | -3 | -3 | / | / | / | 24
O=c1c2cc(N3CCOCC3)ccc2[nH]c(=S)n1CCCN1CCCCC1 | -1 | 3 | 4 | -14 | 4 | i | 0 | -10
CCOC(=O)c1cc(S(=O)(=O)N2CCOCC2)cn1C | -10 | 1 | 2 | -21 | / | i | / | 9
COc1ccc(/C=C(/C#N)C(=O)Nc2ccccc2C)cc1C(=O)O | -10 | -7 | 0 | -5 | 5 | i | 5 | -4
CC(=O)N1N=C(N)SC1c1ccc(Cl)c(Cl)c1 (stereo not drawn) | / | 1 | 5 | -14 | / | / | / | 1
Cc1ccccc1Nc1ncnc2c1cnn2Cc1ccccc1 | -10 | 0 | -1 | -8 | -12 | i | 16 | 38
Cc1cc(N)n(-c2ncnc3scc(-c4ccc(Cl)cc4)c23)n1 | -6 | -2 | -5 | -16 | 3 | i | -1 | -27
CC(=O)Nc1ccc(NC(=O)C2CCN(C(=O)c3cccs3)CC2)cc1 | 6 | -1 | 0 | / | 5 | i | -3 | 13
CCOc1ccc(S(=O)(=O)N=C(c2ccccc2)N2CCOCC2)cc1 | -15 | 4 | 4 | -6 | / | / | / | i
CCNC(=O)NC(=O)C(C)Sc1nnc(COc2ccccc2Cl)o1 (stereo not drawn) | / | 7 | 9 | 4 | 2 | i | -5 | /
N/N=C(/Cc1nc2ccccc2[nH]1)c1ccc([N+](=O)[O-])cc1 | -13 | 5 | -5 | / | 7 | i | 5 | -28
Cc1nn2c(nc(N3CCOCC3)c3ccccc32)c1C=C(C#N)C#N | -4 | 1 | 4 | -12 | ? | i | -4 | /
Cc1cccc(CCN(CC(=O)NC2CCCCC2)C(=O)c2csnn2)c1 | 3 | 1 | 1 | / | -13 | i | -9 | 8
CCn1c2ccccc2c2cc(NC(=O)c3ccccc3[N+](=O)[O-])ccc21 | / | 1 | 1 | / | 8 | i | -10 | /
COc1cc(NC(=O)[C@@H]2CCCN(S(=O)(=O)c3cccc4cccnc34)C2)cc(OC)c1OC | -4 | 4 | -3 | 0 | / | / | / | -19
O=C(C1CCN(c2ncnc3c2nc2n3CCCCC2)CC1)N1CCN(c2ccc(F)cc2)CC1 | -25 | -7 | -21 | -1 | 5 | i | 1 | 17
COc1ccc(CCCN2CCC(CN3CCNC(=O)C3=O)CC2)cc1OC | / | 3 | 0 | -15 | / | / | / | 1
CCN(CC)c1ncnc2c1ncn2[C@H]1CN(Cc2ccncc2)C[C@@H](CO)O1 | / | -1 | -7 | -4 | / | / | / | -5
Cn1nnc(NC(=O)CSc2ccc(Cl)cc2)n1 | 1 | -10 | -4 | -31 | 0 | i | 18 | -21
C#CCNC(=O)C1=C[C@H](c2csc3ccccc23)C[C@H](OCc2ccc(CO)cc2)O1 | -8 | 1 | -1 | -11 | 2 | i | -4 | 17
C[C@H](NC(=O)c1ccccc1Cl)C(=O)OCC(=O)N1CC2(C)CC1CC(C)(C)C2 (stereo partly drawn) | 4 | 3 | 8 | / | 0 | i | -5 | -35
COc1ccc(Cl)cc1-c1nc(SCC(=O)NC(C)(C)C)n[nH]1 | -11 | -2 | -4 | -9 | 3 | i | 75 | 4 | eIF4H inh retest=3;PABP FP inh retest=14
O=C(Nc1ccc(Cl)c(NC(=O)c2cccs2)c1)c1ccco1 | 0 | -1 | -3 | 7 | -2 | i | -11 | -62
CC(C)NC(=O)CN(c1cccc([N+](=O)[O-])c1)S(=O)(=O)c1ccccc1 | -1 | -1 | 3 | / | 3 | i | -1 | -14
Cc1ccc(-n2nc3c(=O)n(CC(=O)NC4CCCCCC4)nc(C)c3c2C)cc1 | 1 | 11 | -13 | -15 | -4 | i | 0 | 10
O=C(CSc1nnc(Cc2cccs2)n1Cc1ccco1)Nc1cc(Cl)cc(Cl)c1 | -5 | -13 | -8 | -6 | -1 | i | -2 | -17
Cn1cnnc1SCCC(=O)Nc1ccccc1 | -5 | 4 | 5 | -13 | -8 | i | -5 | -100
CCc1ccc2nc(N(CCN(C)C)C(=O)c3ccc4ncsc4c3)sc2c1 | 13 | -2 | -2 | -2 | 12 | i | 9 | /
CCc1cc(-c2[nH]ncc2-c2ccc3c(c2)OCO3)c(O)cc1O | 56 | -14 | -22 | -28 | 10 | i | 14 | ?
CC(=O)Nc1sc(C)c(C)c1C(=O)OCC(=O)NC(C)c1ccccc1 (stereo not drawn) | / | 7 | -5 | -20 | / | / | / | -13
CCCC(C(=O)Nc1ccc(S(=O)(=O)Nc2nccs2)cc1)c1ccccc1 (stereo not drawn) | / | 1 | -4 | -8 | / | / | / | -10
Cc1cc(S(=O)(=O)N(Cc2ccc(C(C)(C)C)cc2)Cc2cccs2)ccc1-n1cnnn1 | 56 | -11 | -17 | 1 | 1 | i | 2 | 22
CCc1nc(SCc2cccnc2)[nH]c(=O)c1C | -7 | 1 | 1 | -25 | -14 | i | -3 | -55

Filtered by structure: those above with a thiophene ring, fused or not (nine)
SMILES | CSC inhib | MT1-MMP act inh | MT1-MMP act inh RFP | UUG fidelity | eIF4H inh | Rce1 inh | PABP FP inh | Env fusion inh | others
O=C(CN1CCCC1)Nc1nnc(-c2cccs2)s1 | -12 | 1 | -1 | / | 7 | i | 17 | -11
CCN1CCN(c2ncnc3scc(-c4ccc(C)cc4)c23)CC1 | -39 | -14 | -6 | -9 | 6 | i | -10 | 10
Cc1cc(N)n(-c2ncnc3scc(-c4ccc(Cl)cc4)c23)n1 | -6 | -2 | -5 | -16 | 3 | i | -1 | -27
CC(=O)Nc1ccc(NC(=O)C2CCN(C(=O)c3cccs3)CC2)cc1 | 6 | -1 | 0 | / | 5 | i | -3 | 13
C#CCNC(=O)C1=C[C@H](c2csc3ccccc23)C[C@H](OCc2ccc(CO)cc2)O1 | -8 | 1 | -1 | -11 | 2 | i | -4 | 17
O=C(Nc1ccc(Cl)c(NC(=O)c2cccs2)c1)c1ccco1 | 0 | -1 | -3 | 7 | -2 | i | -11 | -62
O=C(CSc1nnc(Cc2cccs2)n1Cc1ccco1)Nc1cc(Cl)cc(Cl)c1 | -5 | -13 | -8 | -6 | -1 | i | -2 | -17
CC(=O)Nc1sc(C)c(C)c1C(=O)OCC(=O)NC(C)c1ccccc1 (stereo not drawn) | / | 7 | -5 | -20 | / | / | / | -13
Cc1cc(S(=O)(=O)N(Cc2ccc(C(C)(C)C)cc2)Cc2cccs2)ccc1-n1cnnn1 | 56 | -11 | -17 | 1 | 1 | i | 2 | 22

Not all compounds are listed; the hit share may differ from the screen's.
